Screening data: PubChem, Broad Institute
rRNA inh HTS: reduced GFP signal of wild-type E. coli, primary screen, bacterial rRNA inhibitor project, GFP/RFP fluorescence, OD600, single point; E. coli WT GFP vs humanized-ribosome RFP mutants, 24 h; stronger effect = lower value; DMSO median 0, no signal -100; hit rate 1.6% among 350,000; AID 720706, 2013; GFP signal change (wild-type ribosome), % (no concentration beside the values);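 active means significant combined selectivity score with lowered wild-type GFP, culture density cut under 30%, mutant RFP and density less affected; inactive means any of these conditions unmet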; further: one replicate is shown; some compounds called inactive have numbers as strong as hits
AF4-AF9 inh: inhibitors of AF4 peptide binding to AF9, primary screen, biochemical, AlphaScreen, biotin-AF4 peptide, FLAG-AF9, single point; AID 651704, 2012; Protein AF-9 (Homo sapiens), P42568; hit rate 0.47% among 350,000; inhibition, % at 10 µM;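 active means every replicate reaching a set inhibition limit, whatever the replicate mean, cut at about 25% in these data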;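 further: 0% = plate neutral control median and 100% = total signal loss; the record names both 10 and 1 µM as test concentration; the first replicate is given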
Target sequence (P42568 whole entry, looked up): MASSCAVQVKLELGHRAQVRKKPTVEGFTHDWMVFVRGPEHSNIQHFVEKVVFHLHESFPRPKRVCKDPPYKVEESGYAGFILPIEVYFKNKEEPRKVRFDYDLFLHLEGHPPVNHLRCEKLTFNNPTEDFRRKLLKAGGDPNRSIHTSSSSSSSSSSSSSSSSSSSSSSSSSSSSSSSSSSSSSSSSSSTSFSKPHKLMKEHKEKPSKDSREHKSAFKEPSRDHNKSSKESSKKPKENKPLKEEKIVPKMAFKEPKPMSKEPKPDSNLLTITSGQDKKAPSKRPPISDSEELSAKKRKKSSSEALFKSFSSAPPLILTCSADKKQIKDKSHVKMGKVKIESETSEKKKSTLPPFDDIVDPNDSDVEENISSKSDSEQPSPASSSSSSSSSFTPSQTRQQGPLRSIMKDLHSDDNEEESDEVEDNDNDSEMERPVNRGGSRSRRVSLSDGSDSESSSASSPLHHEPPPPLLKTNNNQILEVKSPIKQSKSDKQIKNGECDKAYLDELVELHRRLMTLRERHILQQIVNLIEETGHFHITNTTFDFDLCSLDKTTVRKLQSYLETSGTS
rRNA inh HTS OD600: second read-out of rRNA inh HTS, no call of its own (marks repeat the call); OD600 change, %; measured here: OD600 growth;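 optical density of the mix in the first replicate; 0 = DMSO median and -100 = no signal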
rRNA inh HTS RFP: further read-out of rRNA inh HTS, marked with its call; RFP signal change, %; measured here: RFP humanized mutant strains;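 first replicate; 0 = DMSO median and -100 = no signal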
Numbers without * were called inactive; & = joins results of further samples.

Structure | rRNA inh HTS | rRNA inh HTS OD600 | rRNA inh HTS RFP | AF4-AF9 inh
CO[C@H]1CN(C)C(=O)c2cc(NC(=O)c3cc(C)on3)ccc2OC[C@H](C)N(CC2CC2)C[C@H]1C | 1.4 | -1.5 | -2.1 | -1.1
COc1ccc2c3c(n(C)c2c1)[C@@H](CO)N(C(=O)C1CC1)CC31CCN(C)CC1 | 5.6 | 9.0 | -2.5 | -8.0
CCC(=O)N(C)C[C@@H]1[C@H](c2ccc(C3=CCCC3)cc2)[C@H](CO)N1C(=O)CC | 2.9 | 2.0 | 2.4 | -0.6
CN1OC[C@@H]2CN(S(=O)(=O)c3cccc(C(F)(F)F)c3)[C@H](c3ccc(N4CCCCC4)cc3)C[C@@H]21 | 7.5 | 14.1 | 2.6 | -1.3
C[C@H](NC(=O)C[C@@H]1C[C@@H]2c3cc(NC(=O)C4CCOCC4)ccc3O[C@@H]2[C@H](CO)O1)c1ccccc1 | 4.7 | 1.4 | -2.7 | -0.6
COc1cccc(C(NC(C)=O)c2nc(-c3ccc(OC)nc3)cs2)c1 (configuration not stated) | 1.3 | 7.4 | -0.7 | 0.7
COCC(=O)Nc1ccc2c(c1)[C@@H]1C[C@H](CC(=O)NCc3ccccc3)O[C@H](CO)[C@@H]1O2 | -1.1 | 4.6 | -2.4 | 0.0
C[C@@H]1CN([C@@H](C)CO)C(=O)c2cc(NC(=O)Nc3ccccc3)ccc2O[C@H]1CN(C)C | 0.2 | -0.4 | -0.4 | -1.1
C[C@@H]1CN([C@@H](C)CO)S(=O)(=O)c2ccc(C#CC3(O)CCCC3)cc2O[C@@H]1CN(C)C(=O)Nc1ccccc1 | -5.5 | -8.9 | -0.4 | -10.8
C[C@@H]1CN([C@H](C)CO)C(=O)Cc2cc(NC(=O)C3CC3)ccc2O[C@H]1CN(C)Cc1ccc(C(=O)O)cc1 | 3.5 | 10.7 | 0.7 | -4.2
COc1ccc2c3c(n(C)c2c1)[C@@H](CO)N(C(=O)NC(C)C)CC31CCN(CC2CC2)CC1 | 2.0 | -4.8 | -2.6 | 10.6
C[C@@H]1CN([C@@H](C)CO)C(=O)CCCn2cc(nn2)CO[C@@H]1CN(C)S(=O)(=O)c1ccc2c(c1)OCCCO2 | -1.2 | -6.5 | -1.2 | -1.8
C=CCN1C(=O)c2ccc(C(=O)OCC(=O)N(CC)c3c(N)n(Cc4ccccc4)c(=O)[nH]c3=O)cc2C1=O | 6.1 | 19.2 | -1.0 | -0.5
O=C1OCCN1C(=O)[C@H]1[C@H](c2ccc(Cl)cc2)C(c2ccccc2)=NN1c1ccccc1 | 21.1 | 7.2 | 3.8 | -5.3
Cc1noc(C)c1NC(=O)Nc1ccc2c(c1)C(=O)N([C@H](C)CO)C[C@@H](C)[C@@H](CN(C)Cc1ccc(-c3ccccc3)cc1)O2 | 0.5 | -4.5 | 3.6 | 3.4
C[C@H](CO)N1C[C@H](C)[C@@H](CN(C)C(=O)CC2CC2)Oc2cc(-c3cccnc3)ccc2S1(=O)=O | 1.8 | 6.2 | -4.6 | 1.0
C[C@H](CO)N1C[C@H](C)[C@@H](CN(C)C(=O)Nc2ccccc2)OCCCC[C@H](C)Oc2ccc(N(C)C)cc2C1=O | -1.2 | 2.3 | 0.6 | 9.0
C/C=C/c1ccc(C2[C@@H]3CN(C(=O)Cc4ccncc4)C[C@H]2N3)cc1 (some centres not stated) | 4.7&4.0 | -1.8&8.2 | 2.9&1.9 | 4.9&11.0
C/C=C/c1ccc([C@H]2[C@@H](CO)N3CCCCN(CCC(F)(F)F)C[C@@H]23)cc1 | 2.8 | -6.8 | -1.8 | 7.1
C[C@H](CO)N1C[C@H](C)[C@@H](CN(C)C)Oc2c(NC(=O)c3cnccn3)cccc2C1=O | -1.7 | 5.0 | -0.8 | -3.2
Cc1noc(C)c1NC(=O)Nc1ccc2c(c1)CC(=O)N([C@@H](C)CO)C[C@H](C)[C@H](CN(C)Cc1ccc(-c3ccccc3)cc1)O2 | -3.3 | -27.8 | 13.0 | 1.8
C[C@H]1CCCCO[C@@H](CN(C)C(=O)NC2CCCCC2)[C@@H](C)CN([C@@H](C)CO)C(=O)c2cc(NC(=O)Nc3ccccc3)ccc2O1 | 0.6 | -3.3 | -0.5 | 1.0
CO[C@H]1CN(C)C(=O)c2ccc(NC(=O)c3ccccc3F)cc2OC[C@@H](C)N(CC2CCOCC2)C[C@H]1C | 0.8 | -4.5 | 0.8 | 0.1
CN(C)C(=O)C[C@@H]1C[C@@H]2c3cc(NC(=O)c4cccnc4)ccc3O[C@@H]2[C@H](CO)O1 | 5.9 | 13.8 | 0.7 | -2.9
COc1ccc(CN(C)C[C@@H]2Oc3ccc(NS(=O)(=O)c4cccs4)cc3CC(=O)N([C@H](C)CO)C[C@@H]2C)cc1 | -5.5 | -6.5 | -0.5 | -1.4
CCC(=O)N1[C@@H]2c3cccc(=O)n3C[C@H]1[C@H](CO)[C@H]2C(=O)NC1Cc2ccccc2C1 | -0.5 | -5.0 | -1.5 | -0.5
Cn1cc(C(=O)C(=O)NC2CC2)c2ccccc21 | 0.1 | 11.0 | 3.2 | -0.4
COCC(=O)N(C)C[C@H]1Oc2ncc(C#Cc3ccc(F)cc3)cc2C(=O)N([C@@H](C)CO)C[C@@H]1C | 4.3 | 4.0 | 1.1 | -1.4
C[C@H](NC(=O)C[C@H]1C[C@@H]2c3cc(NC(=O)CC4CC4)ccc3O[C@@H]2[C@@H](CO)O1)c1ccccc1 | -5.8 | -0.9 | -2.7 | -2.0
COCC(=O)Nc1ccc2c(c1)[C@H]1C[C@H](CC(=O)NCc3ccc4c(c3)OCO4)O[C@@H](CO)[C@H]1O2 | -0.8 | -0.2 | 0.1 | 0.7
COCC(=O)N1C[C@H]2[C@@H](c3ccccc31)[C@@H](CO)N2C(=O)c1ccccc1F | 4.5 | 4.3 | 1.1 | -1.3
CO[C@@H](CN(C)C(=O)c1ccccc1F)[C@H](C)CN([C@@H](C)CO)S(=O)(=O)c1ccccc1 | -0.1 | 3.7 | -2.5 | -24.8
CNC[C@@H]1Oc2ccc(NS(C)(=O)=O)cc2CC(=O)N([C@H](C)CO)C[C@@H]1C | -0.5 | 14.2 | -2.7 | -3.6
COc1ccc(CN(C)C[C@@H]2Oc3ccc(NS(=O)(=O)c4cccs4)cc3CC(=O)N([C@@H](C)CO)C[C@@H]2C)cc1 | -1.9 | -8.7 | 4.7 | 1.3
COc1cccc(CNC(=O)C[C@H]2CC[C@@H](NS(=O)(=O)c3ccccc3OC)[C@H](CO)O2)c1 | 3.1 | 2.5 | -1.8 | -1.5
C[C@@H]1CN([C@H](C)CO)C(=O)c2cc(NC(=O)Nc3cccc4ccccc34)ccc2O[C@H]1CN(C)C(=O)NC1CCCCC1 | -3.1 | -14.8 | -1.0 | -1.6
C[C@@H]1CN([C@H](C)CO)C(=O)c2cccc(NC(=O)Nc3cccc4ccccc34)c2O[C@H]1CN(C)C(=O)NC1CCCCC1 | 0.6 | 3.5 | 0.1 | 3.5
Cc1ccccc1S(=O)(=O)N[C@@H]1CC[C@@H](CCn2cc(-c3ccccc3)nn2)O[C@H]1CO | -1.2 | 0.8 | -0.5 | -8.8
CC(O)(c1ccc(F)c(F)c1)c1nc(-c2cccc(C(F)(F)F)c2)cs1 (configuration not stated) | -54.1 | -74.2 | -14.2 | -2.4
Cc1cc(OCC(=O)Nc2nnc(C3CC3)s2)ccc1C(C)C | 16.3 | 13.2 | -0.7 | -1.3

Next records.
Order of values: rRNA inh HTS, rRNA inh HTS OD600, rRNA inh HTS RFP, AF4-AF9 inh
> O=C(C[C@@H]1CC[C@@H](NS(=O)(=O)c2ccc(F)cc2)[C@@H](CO)O1)NCCN1CCCCC1
  1.7, 4.9, -2.1, 0.1
> O=S1(=O)CC(N2CCCCC2)CN1Cc1cn(Cc2ccc(F)cc2)nn1 (configuration not stated)
  14.8, 14.2, -0.6, -0.6
> COc1ccccc1CNc1ccc2c(c1)OC[C@H](CC(C)C)NS2(=O)=O
  8.1, 7.7, 1.4, 0.4
> COc1ccc(NC(=O)N(C)C[C@@H]2OCCCC[C@@H](C)Oc3ccc(NC(=O)Nc4ccc(C(F)(F)F)cc4)cc3C(=O)N([C@@H](C)CO)C[C@@H]2C)cc1
  5.2, 4.7, -1.7, -0.5
> COc1ccc(NC(=O)Nc2cccc3c2O[C@@H](CN(C)Cc2ccc(C(F)(F)F)cc2)[C@H](C)CN([C@H](C)CO)C3=O)cc1
  1.7, -2.6, -2.1, 1.3
> CC[C@]12c3[nH]c4ccc(Cl)cc4c3CCN1C(=O)[C@@H](CC(=O)NC/C=C(\C)CCC=C(C)C)C[C@@H]2C(=O)N1CCN(C(=O)c2ccco2)CC1
  16.3, 16.3, 5.5, 0.9
> CC(C)(C)C(=O)c1c(N)[nH]c(C(=O)c2ccccc2)c1-c1ccc(F)cc1
  -27.6, -34.2, 0.1, 4.0
> C[C@@H](NC(=O)C[C@@H]1C=C[C@H](NC(=O)Nc2ccc3c(c2)OCO3)[C@H](CO)O1)c1ccccc1
  4.9, 4.9, 0.2, -1.9
> O=C(C[C@H]1CC[C@H](NC(=O)Nc2ccccc2F)[C@@H](CO)O1)NCc1ccc(Cl)cc1
  -0.7, -1.4, 0.3, 0.5
> CC(=O)N(Cc1ccccc1)c1nccs1
  13.5, 10.1, 0.1, -4.6
> COCC(=O)N(C)C[C@H]1Oc2cc(-c3ccncc3)ccc2S(=O)(=O)N([C@H](C)CO)C[C@@H]1C
  7.5, 12.5, -4.2, -0.2
> C[C@H]1CN([C@@H](C)CO)C(=O)c2cc(/C=C/c3ccccc3)cnc2O[C@@H]1CN(C)C(=O)C1CCCCC1
  -5.2, -31.6, 22.0, 13.7
> COc1cccc(S(=O)(=O)Nc2ccc3c(c2)[C@@H]2C[C@H](CC(=O)N4CCCCC4)O[C@@H](CO)[C@@H]2O3)c1
  -2.0, -12.5, 3.0, 3.2
> CCn1c(C)nnc1SCC(=O)Nc1ccc(OC)cc1
  10.9, 16.1, -0.9, -0.6
> Cc1ccccc1-c1ccc([C@H]2[C@@H](CO)N3C(=O)CN(C(=O)Cc4ccccn4)C[C@@H]23)cc1
  -2.0, -3.1, -1.7, -11.6
> CO[C@H]1CN(C)C(=O)c2cc(NC(=O)Nc3ccccc3)ccc2OC[C@@H](C)N(C(=O)CN(C)C)C[C@H]1C
  0.4, -2.8, -1.4, 2.5
> C[C@@H]1CCCCO[C@H](CN(C)CC2CCCCC2)[C@H](C)CN([C@@H](C)CO)C(=O)c2cc(NC(=O)Nc3ccccc3)ccc2O1
  -3.6, -43.0, 33.3, 3.9
> C[C@H](CO)N1C[C@H](C)[C@@H](CN(C)Cc2ccc(Cl)c(Cl)c2)OCCCC[C@H](C)Oc2ccc(NS(=O)(=O)c3ccccc3)cc2C1=O
  0.1, -24.4, 30.6, 0.3
> C[C@H](O)C#Cc1cnc2c(c1)C(=O)N([C@H](C)CO)C[C@@H](C)[C@H](CN(C)Cc1cncnc1)O2
  0.0, 4.2, -1.2, -4.8
> COc1ccc(S(=O)(=O)N(C)C[C@H]2Oc3ccc(NC(=O)C4CC4)cc3CC(=O)N([C@@H](C)CO)C[C@@H]2C)cc1
  0.0, 4.0, -1.9, -10.0
> C[C@H](CO)N1C[C@H](C)[C@@H](CN(C)Cc2ccc3c(c2)OCO3)OCCCC[C@H](C)Oc2ccc(NS(C)(=O)=O)cc2C1=O
  1.1, 4.5, 1.1, 1.3
> O=C(CN1CCOCC1)N[C@H]1CC[C@@H](CCNS(=O)(=O)c2ccccc2F)O[C@H]1CO
  2.7, 7.8, 1.4, 0.0
> C[C@H](CO)N1C[C@H](C)[C@H](CN(C)Cc2ccccc2)Oc2ncc(-c3cccc(C(F)(F)F)c3)cc2C1=O
  -1.5, -15.7, 3.0, -11.3
> O=C(C(=O)N1CCC(Cc2ccccc2)CC1)c1ccccc1
  -24.2&-30.2, -60.4&-61.2, 1.9&-2.6, 0.9&-0.6
> O=C(Nc1cc(F)ccc1F)N1CC(=O)N2[C@H](CO)[C@H](c3ccc(C#CC4CCCC4)cc3)[C@@H]2C1
  -3.8, -35.3, 6.3, 1.6
> CN(C[C@@H]1[C@@H](c2ccccc2)[C@H](CO)N1Cc1ccccn1)S(C)(=O)=O
  -0.8, 2.7, -1.9, -1.7
> CCOC(=O)[C@]12CCC=C1N(CCC1=CCCCC1)C(=O)[C@H](CC(=O)NCCCOC)C2
  15.1, 17.0, 2.4, -6.2
> COc1ccccc1-c1ccc2c(c1)O[C@H](CN(C)C(=O)Nc1ccccc1)[C@@H](C)CN([C@H](C)CO)S2(=O)=O
  -4.2, -11.4, 1.0, 0.0
> O=C(Nc1ccc2c(c1)OCO2)C1Cc2c(-c3cccnc3)ccnc2O1 (configuration not stated)
  12.2, 5.2, -0.4, -3.4
> C[C@@H]1CN([C@@H](C)CO)S(=O)(=O)c2ccc(-c3ccncc3)cc2O[C@H]1CN(C)S(C)(=O)=O
  -1.2, 2.2, -0.5, -12.1

An excerpt from above in order of the rRNA inh HTS OD600 value, highest first.
Order of values: rRNA inh HTS, rRNA inh HTS OD600, rRNA inh HTS RFP, AF4-AF9 inh
> O=C(CN1CCOCC1)N[C@H]1CC[C@@H](CCNS(=O)(=O)c2ccccc2F)O[C@H]1CO
  2.7, 7.8, 1.4, 0.0
> COc1ccc(S(=O)(=O)N(C)C[C@H]2Oc3ccc(NC(=O)C4CC4)cc3CC(=O)N([C@@H](C)CO)C[C@@H]2C)cc1
  0.0, 4.0, -1.9, -10.0
> C[C@H](CO)N1C[C@H](C)[C@H](CN(C)Cc2ccccc2)Oc2ncc(-c3cccc(C(F)(F)F)c3)cc2C1=O
  -1.5, -15.7, 3.0, -11.3

An excerpt; count on the stated rates, not on these rows.
